# NS1 inh: qHTS Assay for Inhibitors of Influenza NS1 Protein Function; S. cerevisiae slowed by influenza A NS1, growth recovery by OD600; Potency, µM (top dose mostly 46.1 µM), for inactives: top-dose activity, positive = more growth; 270,000 compounds, 0.4% hits; AID 2326, 2010; further: actives are rising curves; nearly all actives have a fitted effect of over 50% in size
#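 In this qHTS, NS1 from influenza A is expressed in budding yeast, where it slows growth. Cells are switched from glucose to 2% galactose medium (pH 6.0, -URA), treated with compound, and growth recovery is read at OD600.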
# MARV entry inh: qHTS for inhibitors of binding or entry into cells for Marburg Virus; Marburg virus pseudotyped entry inhibition, cell reporter; control for the full effect not named in the record; about a third of the inactives were read at about 46 µM; Potency, µM (series often up to 37.8 µM), without a hit: at the highest dose activity change, negative = inhibition, actives largely listed as inhibitors; 300,000 compounds, 1.8% hits; AID 540276, 2011; active = well fitted inhibition curve with a large enough effect; inconclusive = small, poorly fitted or top-dose-only effect, or effect the other way; inactive = flat fitted curve, though single readings scatter; tested in HEK293 cells; about a fifth of its hits are not listed in these tables; further: on the % scale 0 is the no-effect control and ±100 the full control effect; luciferase read-out
# Lassa entry inh: qHTS for Inhibitors of binding or entry into cells for Lassa Virus; Lassa virus pseudotype entry inhibition, cell reporter; control for the full effect not named in the record; Potency, µM (highest dose often 37.9 µM), without a hit: at the highest dose activity change, negative = inhibition, actives largely listed as inhibitors; 300,000 compounds, 1.2% hits; AID 540256, 2011; active means well fitted inhibition curve with a large enough effect; inconclusive means small, poorly fitted or top-dose-only effect, or effect the other way; inactive means flat fitted curve, though single readings scatter; tested in HEK293 cells; further: on the % scale 0 is the no-effect control and ±100 the full control effect; nearly all actives have a fitted effect of over 50% in size; luciferase read-out
# SARS PLP yeast: qHTS of Yeast-based Assay for SARS-CoV PLP. 330,000 compounds, 0.19% hits. AID 485353, 2010. S. cerevisiae expressing SARS-CoV PLpro, growth rescue; control for the full effect not named in the record. Potency, µM (series often up to 32.9 µM), inactives show at the highest dose activity, positive = growth rescue; further: 0% is about no effect; nearly all actives have a fitted effect of over 55% in size; growth read by luminescence after 48 h
# Cruzain Triton: qHTS Assay for Promiscuous and Specific Inhibitors of Cruzain (with detergent); Cruzipain (Trypanosoma cruzi), P25779; purified cruzain, Z-FR-AMC fluorescence, 0.01% Triton; Potency, µM, without a hit: max response, negative = inhibition, actives largely listed as inhibitors; 200,000 compounds, 0.43% hits; AID 1478, 2009; active means well fitted curve in the direction sought with a large enough effect; inconclusive means small, poorly fitted or top-dose-only effect, or another doubt; inactive means no such curve, though single readings can be large; an effect the other way counts as inactive or inconclusive;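 further: plate controls were neutral wells for no effect and buffer without enzyme for full effect; nearly all actives have a fitted effect of over 40% in size; top concentration of the series not given in the record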
# Target sequence (P25779 123-467 limits assumed): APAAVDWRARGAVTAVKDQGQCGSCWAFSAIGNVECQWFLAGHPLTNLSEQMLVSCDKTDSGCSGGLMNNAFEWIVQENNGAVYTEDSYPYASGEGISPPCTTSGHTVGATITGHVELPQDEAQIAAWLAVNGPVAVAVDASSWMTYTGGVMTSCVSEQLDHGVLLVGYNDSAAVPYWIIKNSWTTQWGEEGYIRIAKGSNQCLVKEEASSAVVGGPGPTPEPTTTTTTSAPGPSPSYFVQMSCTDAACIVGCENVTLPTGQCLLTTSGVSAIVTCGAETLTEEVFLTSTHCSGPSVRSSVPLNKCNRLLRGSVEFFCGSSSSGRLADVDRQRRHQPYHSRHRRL
#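 In this qHTS format, compounds are incubated with 1.5 nM cruzain for 15 min at room temperature before 2 uM Z-FR-AMC is added. Release of AMC is followed at 360/450 nm, and progress is taken as the 60 s fluorescence difference.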
# Cruzain noTriton: qHTS Assay for Promiscuous and Specific Inhibitors of Cruzain (without detergent). AID 1476, 2009. purified cruzain, Z-FR-AMC fluorescence, no detergent. Cruzipain (Trypanosoma cruzi), P25779. Potency, µM, without a hit: max response, negative = inhibition, most hits filed as inhibitors. 200,000 compounds, 2.3% hits; active means well fitted curve in the direction sought with a large enough effect; inconclusive means small, poorly fitted or top-dose-only effect, or another doubt; inactive means no such curve, though single readings can be large; an effect the other way counts as inactive or inconclusive;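 further: plate controls were enzyme without inhibitor for no effect and buffer without enzyme for full effect; nearly all actives have a fitted effect of over 40% in size; top concentration of the series not given in the record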
#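 Purified cruzain at 1.5 nM, pre-incubated 15 min with compound at room temperature in 100 mM sodium acetate pH 5.5, 5 mM DTT, 0.00005% Triton X-100. Reaction started with 2 uM Z-FR-AMC; AMC fluorescence increase over 60 s gives rate.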
# StopGo reporter: High Throughput Screening for Foot and Mouth Disease Virus Antivirals; human cells with a luciferase reporter of 2A StopGo recoding; control for the full effect not named in the record; AID 1159524, 2015; 410,000 compounds, 1.2% hits; Potency, µM (titrated, usually from 57.9 µM), inactives show top-dose signal change, negative = less light; active = well fitted falling curve with a large enough effect; inconclusive = small, poorly fitted or top-dose-only effect; inactive = no such curve, though single readings can be large or run the other way; tested in HEK293T cells; further: on the % scale 0 is the no-effect control and ±100 the full control effect; nearly all actives have a fitted effect of over 45% in size; luciferase light after 4 h
# RE007 growth inh: qHTS Assay for Inhibitors of the HIV-1 protein Vpr. S. pombe RE007 Vpr strain, BacTiter-Glo ATP luminescence, 24 h; control for the full effect not named in the record. Potency, µM (titrated, usually from 92.2 µM), without a hit: at the highest dose activity change, negative = less growth. 360,000 compounds, 0.21% hits. AID 651644, 2012; active = well fitted falling curve with a large enough effect; inconclusive = small, poorly fitted or top-dose-only effect; inactive = no such curve, though single readings can be large or run the other way;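 further: on the % scale 0 is the no-effect control and ±100 the full control effect; nearly all actives have a fitted effect of over 50% in size; the assay follows cell death caused by Vpr and the record does not say whether a fall means rescue or toxicity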
#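 Fission yeast RE007 carrying one integrated HIV-1 vpr copy, seeded at OD 0.01 in PMG+AL medium with 23 nL pinned compound. Grown 24 h at 30 degrees; viability read by BacTiter-Glo luminescence after 5 min.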
# * marks the source's active call; other numbers are inactive results; ? = inconclusive; nt = no result given; & = joins results of further samples; [ ] = another dose, or the depositor's remark. Unless noted, the call rests on the fitted dose curve; in most records, active means well fitted rising curve with a large enough effect; inconclusive means small, poorly fitted or top-dose-only effect; inactive means no such curve, though single readings can be large or run the other way. Potency means the concentration at half of the fitted maximal effect. Hits appear at their usual frequency. About 4.6% of those tested had a hit in this group.
SMILES,NS1 inh,MARV entry inh,Lassa entry inh,SARS PLP yeast,Cruzain Triton,Cruzain noTriton,StopGo reporter,RE007 growth inh
CCOC(=O)CCC(=O)NNC(=O)c1ccc(NC(=O)c2ccccc2)cc1,5%,-3%,5%,0%,nt,nt,12%,1%
COc1ccc(/C=C(\NC(=O)c2ccccc2Cl)C(=O)NCCCC(=O)O)cc1,4%,2%[46.1 µM],-18%[46.1 µM],0%,nt,nt,28%,4%
CC(=O)NC(CCS(C)(=O)=O)C(=O)Nc1ccc2c(c1)OCCO2 (stereo not given),-1%,29%,8%,1%,1.1%,-6%,nt,-2%
Cc1cc(C(=O)O)cc(Br)c1N,nt,-16%[46.1 µM],-3%,1%,nt,nt,-15%,17%
CCNc1nc(NCC)nc(NC(N)=S)n1,-4%,?,9%,1%,nt,nt,1%,-14%
CCC/C(=N\NC(=O)CCC(=O)NCc1ccccc1)c1ccccc1,nt,?,4µM*,0%,nt,nt,-12%,-6%
Cc1ccc(NS(=O)(=O)c2c(C)[nH]c(=O)[nH]c2=O)c(Br)c1,2%,nt,nt,2%,nt,nt,-19%,2%
O=C(COc1ccccc1)NC1CCCCC1,-15%,3%,-8%,15%,-2.2%,2%,26%,nt
COc1nc2c(s1)C(=O)NCCC2,-8%,-10%,4%,-1%,0.0%,4%,-10%,2%
Cc1c(NC(=O)COc2ncnc3ccccc23)c(=O)n(-c2ccccc2)n1C,-10%,28%,11%,2%,2.4%,5%,-6%,-5%
COc1cccc(/C=C/C(=O)NCc2ccc3c(c2)OCO3)c1,-27%,1%[46.1 µM],1%[46.1 µM],-4%,nt,nt,25%,-9%
Cn1c(=O)c2c(nc(CN3CCOCC3)n2CC(=O)c2ccccc2)n(C)c1=O,?,16%,1%,nt,nt,nt,-5%,6%
CCCNC(=O)c1cc(OC)c(OC)cc1[N+](=O)[O-],13%,9%,4%,3%,-2.2%,-5%,-9%,-13%
c1ccc(CSc2nnc(SCc3ccccn3)s2)nc1,-65%,?,?,5%,0.8%,-8%,40%[activator],10%
CCOC(=O)CNC(=O)c1sc(NC(=O)c2ccccc2F)nc1C,-59%,?,24%,-14%,-1.2%,-5%,nt,-18%
O=S(=O)(NNc1ccc(F)cc1F)c1cccc(Cl)c1,-19%,-19%[46.1 µM],?,1%,nt,nt,41%[activator],106%
CCOc1ccccc1-n1ccnc(NCc2ccc(F)cc2)c1=O,nt,nt,24%[46.1 µM],nt,-1.1%,1%,-9%,nt
CC1C(=O)C(C)C(c2cccs2)NC1c1cccs1 (stereo not given),-5%,-8%,-1%,-1%,4.9%,-10%,-6%,-21%
NC(=O)C1CCCN(C(=S)NCc2ccc3c(c2)OCO3)C1 (stereo not given),nt,8%[46.1 µM],19%[46.1 µM],2%,nt,nt,-5%,13%
O=C(N1CCN(c2ccc(F)cc2)CC1)C1(c2cccs2)CCOCC1,4%,-3%,-2%,4%,-2.3%,13%,0%,2%
CCOC(=O)CNC(=O)c1ccccc1Br,-46%,?,3%,0%,-2.0%,-11%,17%,6%
Cc1ccc2c(c1)C1NC(=S)NC(C)(O2)C1C(=O)Nc1ccc(Cl)cc1 (stereo not given),2%,?,?,-6%,-4.6%,6%,?,-4%
C=CCNC(=O)C1CC2c3ccccc3C1c1ccccc12 (stereo not given),nt,2%,2%,nt,nt,nt,-9%,4%
CCCCCCn1c(N2CCC(C(N)=O)CC2)nc2c1c(=O)[nH]c(=O)n2C,-8%,-6%,-3%,5%,-1.1%,11%,-1%,12%
COc1cc(/C=N/NC(=O)[C@H](Cc2c[nH]c3ccccc23)NC(=O)OCC(C)C)cc([N+](=O)[O-])c1O,26%,-1%,nt,-13%,?,17%,1%,3%
SMILES,NS1 inh,MARV entry inh,Lassa entry inh,SARS PLP yeast,Cruzain Triton,Cruzain noTriton,StopGo reporter,RE007 growth inh
CCC1(C)Cc2ccccc2-c2nc[nH]c(=O)c21 (stereo not given),0%,?,4%,-2%,nt,nt,-20%,0%
CCOC(=O)c1ccc(-n2c(C)nc3c(cnn3-c3ccc(Cl)cc3)c2=O)cc1,0%,2%[46.1 µM],-3%[46.1 µM],10%,-1.6%&-0.3%,0%&-3%,?,1%
O=C(COC(=O)CCc1ccc(S(=O)(=O)N2CCCCC2)cc1)Nc1ccc2c(c1)OCO2,-4%,21%&21%,-8%,?,-0.7%,-20%,-6%,8%
Cn1c(C(=O)N2CCC(C(N)=O)CC2)cc2cc(Cl)ccc21,9%,10%[46.1 µM],0%[46.1 µM],19%,nt,nt,3%,4%
O=C(COc1ccc(S(=O)(=O)Nc2cccc(C(F)(F)F)c2)cc1)N1CCOCC1,7%,-27%[46.1 µM],-5%[46.1 µM],3%,nt,nt,-2%,-1%
Cn1c(=O)c2sccc2n(CC(=O)NCCC2=CCCCC2)c1=O,0%,1%[46.1 µM],?,1%,nt,nt,-14%,-6%
CS(=O)c1ccc(-n2c(=O)n(Cc3ccccc3)c(=O)c3[nH]cnc32)cc1 (stereo not given),1%,18%[46.1 µM],22%[46.1 µM],1%,nt,nt,1%,-3%
CN1C(=O)N(C)C2(c3ccccc3)N(C(C)(C)C)C(=O)NC12c1ccccc1 (stereo not given),0%,-18%,-11%,26%,-0.7%,-7%,-21%,4%
CN(Cc1ccccc1)C(=O)c1oc(=O)c2ccccc2c1-c1ccccc1,-7%,0%,2%,-19%,-5.9%,8%,-3%,11%
O=C1CSC(c2ccccn2)N1c1ccc(F)cc1F (stereo not given),nt,?,3%,2%,nt,nt,5%,-8%
CC1CCCC(NC(=O)CN2C(=O)COc3ccccc32)C1C (stereo not given),4%,nt,nt,11%,nt,nt,-1%,16%
[O-][N+]1=C(c2cccs2)CN(O)C1,5%,16%[46.1 µM],?,10%,1.0%,-11%,9%,18%
COc1cc(NC(=O)c2cccs2)c(C(=O)OCC(=O)NC(=O)NCc2ccccc2)cc1OC,1%,-2%,-4%,10%,-3.1%,?,0%,-18%
[O-][n+]1onc2c1CCc1c-2nc(-c2ccccc2)n1OCc1ccccc1,-2%,-19%,-7%,0%,2.5%,14%,-29%,10%
O=C(CNC(=O)c1ccco1)NCC(=O)OCC(=O)c1ccc(Cl)c([N+](=O)[O-])c1,4%,nt,nt,-2%,nt,nt,-9%,2%
Cc1ccnn1CC(=O)N/N=C/c1ccc2c(c1)OCO2,10%,?,-1%,-3%,-5.9%,4%,9%,-15%
Cc1c(CN2CCC(n3nccc3NC(=O)c3cccc(F)c3)CC2)cnn1C,-1%,3%,-22%,-4%,nt,nt,-5%,5%
COc1cccc(CC(NC(C)=O)C(=O)NC2CCN(S(=O)(=O)c3cccc4ccccc34)CC2)c1 (stereo not given),1%,?,-41%,0%,-4.7%,?,nt,1%
CCOc1ccc(CCNC(=O)COC(=O)c2ccc(C)c([N+](=O)[O-])c2)cc1OCC,1%,5%,10%,-2%,nt,nt,-13%,-10%
Cc1ccc(S(=O)(=O)N2CCN(C(=O)CN3C(=O)NC4(CCCCC4)C3=O)CC2)c(C)c1,nt,19%[46.1 µM],-19%,-1%,nt,nt,7%,3%
CCc1nnc(NC(=O)c2ccc(S(=O)(=O)N3CCCC(C)C3)cc2)o1 (stereo not given),-29%,nt,nt,2%,nt,nt,-18%,-1%
CCc1cccc(CC)c1NC(=S)NCCc1c(C)[nH]c2ccc(C)cc12,?,?,?,?,-6.6%,-25%,4%,14%
C=CCn1c(CC(=O)Nc2cccc(OC)c2)nnc1SCC(=O)NC1CCCCC1,-5%,-2%,0%,2%,0.9%,-1%,14%,2%
COc1ccc(C)cc1NC(=O)CC1COc2ccccc2O1 (stereo not given),-15%,?,-9%,-1%,nt,nt,-16%,2%
O=CN1CCN(C(=O)CN2C(=O)c3ccccc3C2=O)CC1,4%,3%&3%,21%,-3%,-3.6%,4%,-6%,-8%
SMILES,NS1 inh,MARV entry inh,Lassa entry inh,SARS PLP yeast,Cruzain Triton,Cruzain noTriton,StopGo reporter,RE007 growth inh
CN1C(=O)c2ccccc2Sc2ccc(NC(=O)Cc3c(F)cccc3Cl)cc21,nt,nt,?,nt,-1.5%,-6%,-29%,nt
CCOc1ccc(NS(=O)(=O)c2cc(C(=O)NCCN3CCOCC3)ccc2C)cc1,nt,-8%[46.1 µM],5%[46.1 µM],-8%,nt,nt,50%[activator],-7%
Cc1cccc(N(CC(=O)NC2CC2)S(=O)(=O)c2ccc(Cl)cc2)c1,0%,1%,12%,?,nt,nt,7%,-7%
O=C(COc1ccc(-c2ccccc2)cc1)N1CCN(C(=O)c2cccnc2)CC1,-7%,14%,3%,6%,-1.1%,?,-1%,3%
COc1cccc(-c2cc(C(=O)Nc3ccc(C)cc3)[nH]n2)c1,nt,nt,11%[46.1 µM],nt,-0.8%,?,21%,nt
COc1ccc2cc(CN(CCO)C(=O)c3ccccc3F)c(=O)[nH]c2c1,-3%,-16%,-11%,9%,5.0%,-12%,9%,17%
CCOC(=O)Cn1nnc(-c2ccc(S(C)(=O)=O)cc2)n1,-2%,12%,-21%[14.3 µM],28%,4.6%,-2%,4%,-6%
CCOC(=O)c1cccc(NC(=O)CCn2cccc2)c1,-8%,-26%,8.9µM*,6%,1.8%,11%,-22%,4%
O=C(Nc1cc(Cl)cc2c1-c1ccc(Cl)cc1C2O)C(Cl)Cl (stereo not given),nt,?,13µM*,nt,nt,nt,-23%,-4%
Cc1ccccc1N1CC(C(=O)Nc2ccc(S(=O)(=O)N3CCOCC3)cc2)CC1=O (stereo not given),4%,?,12%[46.1 µM],-1%,nt,nt,-2%,-1%
O=c1oc(-c2ccco2)nc2ccccc12,-117%,4%,12%,-1%,-2.9%,2%,3%,-19%
Cc1cc(-c2nnc(SCC(=O)N3C(C)CCCC3C)o2)no1 (stereo not given),-1%,3%,11%,16%,0.2%,3%,nt,-2%

# Screens deposited in PubChem by National Center for Advancing Translational Sciences (NCATS).
